High-throughput results from PubChem BioAssay.
KCNQ2 block: KCNQ2 channel blockers in CHO-K1 cells – cell-based, FluxOR thallium flux, B-score, primary screen (AID 2156) | O88943 | 20 min; hits give low values; only compounds with negative scores are shown here; some inactives read as strong as hits | B-score at 10 µM | 310,000 compounds, 1.1% hits;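 active = fluorescence ratio B-score at most minus 3 library SDs, with starting brightness B-score within 2 library SDs, cut at about -5.5 in these data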
Target sequence (O88943 whole entry, looked up): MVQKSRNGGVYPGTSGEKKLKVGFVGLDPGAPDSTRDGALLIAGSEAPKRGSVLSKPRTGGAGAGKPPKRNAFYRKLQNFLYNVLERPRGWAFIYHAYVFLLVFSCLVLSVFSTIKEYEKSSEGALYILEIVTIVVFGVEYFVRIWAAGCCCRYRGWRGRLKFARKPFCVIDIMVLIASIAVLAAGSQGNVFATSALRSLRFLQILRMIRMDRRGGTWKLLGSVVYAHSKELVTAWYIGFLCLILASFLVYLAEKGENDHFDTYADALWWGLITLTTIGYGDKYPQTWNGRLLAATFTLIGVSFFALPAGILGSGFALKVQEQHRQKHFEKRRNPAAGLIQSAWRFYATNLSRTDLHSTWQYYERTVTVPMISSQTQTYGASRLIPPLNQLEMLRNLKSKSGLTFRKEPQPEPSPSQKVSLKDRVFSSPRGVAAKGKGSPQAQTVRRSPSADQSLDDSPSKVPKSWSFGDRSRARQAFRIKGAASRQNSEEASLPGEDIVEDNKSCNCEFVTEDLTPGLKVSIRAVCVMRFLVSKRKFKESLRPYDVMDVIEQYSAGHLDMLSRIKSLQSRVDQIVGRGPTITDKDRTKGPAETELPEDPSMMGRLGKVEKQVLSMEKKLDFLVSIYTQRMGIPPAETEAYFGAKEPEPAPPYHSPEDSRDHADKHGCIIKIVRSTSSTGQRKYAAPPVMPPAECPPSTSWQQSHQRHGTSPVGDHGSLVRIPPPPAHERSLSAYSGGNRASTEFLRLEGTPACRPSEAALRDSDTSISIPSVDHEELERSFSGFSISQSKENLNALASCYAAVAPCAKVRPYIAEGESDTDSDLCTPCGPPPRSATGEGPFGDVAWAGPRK
KCNQ2 block baseline: second read-out of KCNQ2 block, no call of its own (marks repeat the call); B-score; measured here: initial fluorescence intensity artifact check;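 brightness before thallium and not channel activity; 0 = typical well and far values either way flag optical interference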
An asterisk follows results filed as active; i = inactive. Some of the compounds tested, so the mix of outcomes need not match the whole.

#	canonical_smiles	KCNQ2 block	KCNQ2 block baseline
1	CC(C)NC(=O)NC(=O)COC(=O)c1ccc([N+](=O)[O-])cc1Cl	i	2.5
2	CCC(=O)c1ccc(N2CCN(S(=O)(=O)c3ccccc3)CC2)c(F)c1	i	3.2
3	COc1ccc(NC(=O)C(=O)NCC2CCCN2S(=O)(=O)c2ccc(C)cc2)cc1 (configuration not stated)	i	-0.93
4	Cc1cccc(Oc2nc3ccccn3c(=O)c2/C=C(\C#N)C(=O)NC2CCS(=O)(=O)C2)c1C (configuration not stated)	i	0.48
5	COc1ccc(OC)c(NC(=O)CSc2ccc(-c3cccnc3)nn2)c1	i	1.3
6	N#CCc1ccc(OC(=O)c2cccnc2)cc1	i	-0.19
7	CCN(C(=O)c1ccc(S(=O)(=O)N2CCOCC2)cc1)C1CCS(=O)(=O)C1 (configuration not stated)	i	-0.59
8	CCOc1ccc(N(CC(=O)OC)S(=O)(=O)c2c(C)noc2C)cc1	i	0.46
9	COc1ccccc1C(=O)NCC(=O)NC1CCCc2ccccc21 (configuration not stated)	i	-0.17
10	Cc1nnc2c(NC3CCCC3)nc3ccccc3n12	i	0.97
11	C=CCn1c(SCC(=O)c2ccccc2)nnc1-c1cc2ccccc2o1	i	-0.05
12	CC1CCN(C(=O)c2ccc(NS(=O)(=O)c3ccccc3)cc2)CC1	i	2.9
13	CCOC(=O)C1CCCN(CCC(=O)Nc2cccc(C)c2)C1 (configuration not stated)	i	0.85
14	CCOC(=O)c1c(N)sc2c1CCC1C(=O)N(C3CCCCC3)C(=O)C21 (configuration not stated)	i	-0.12
15	CC(=O)Nc1ccc(S(=O)(=O)NCCc2cn3nc(C)c(C)nc3n2)cc1	i	2.7
16	Cc1cccc(NC(=S)NC(=O)/C=C/c2ccco2)n1	i	-0.16
17	CCOC(=O)C(CCOc1cccc(CC)c1)C(=O)OCC	i	-1.3
18	Cc1cc(NC(=O)c2cccs2)n(-c2nc3ccccc3[nH]2)n1	i	-2.1
19	CC1CN(C(=S)SCC(=O)c2ccc([N+](=O)[O-])cc2)CC(C)O1 (configuration not stated)	i	-0.15
20	COc1cccc(O)c1CN1CCCC(C(=O)c2cccc(C(F)(F)F)c2)C1 (configuration not stated)	i	-0.78
21	Cc1ccc2cc3cc(C(=O)N4CCN(Cc5ccccc5)CC4)sc3nc2c1	i	0.34
22	COc1ccc(OCC(O)CNCCOc2ccccc2OC)c(C(C)(C)C)c1 (configuration not stated)	i	0.97
23	Cc1cc(C)c(NC(=O)CN)c(C)c1	i	0.68
24	Cc1nc(SC2CC(=O)N(c3ccccc3)C2=O)n[nH]1 (configuration not stated)	i	-0.62
25	OC1(c2cccc(C(F)(F)F)c2)CCN(Cc2nnnn2CCc2ccccc2)CC1	i	-0.77
26	OC(CN1CCN(C(c2ccccc2)c2ccccc2)CC1)c1ccccc1 (configuration not stated)	i	-0.02
27	COc1cccc(N2CCN(S(=O)(=O)c3ccc4c(c3)oc(=O)n4C)CC2)c1	i	1.4
28	O=C(CCCSc1nc2ccccc2c(=O)[nH]1)c1ccccc1	i	0.29
29	COc1ccc(/C=N/NC(=O)c2ccc(OC)c(OC)c2)cc1COc1c(F)c(F)c(F)c(F)c1F	i	-0.13
30	O=C(Nc1ccc(S(=O)(=O)N2CCCCC2)cc1)C1CCCO1 (configuration not stated)	i	0.11
31	CCCc1nc2c(=O)n(C)c(=O)[nH]c2n1CCC	i	-0.79
32	O=C(NCCc1cccc(F)c1)[C@@H]1CSC2c3ccccc3C(=O)N21 (some centres not stated)	i	3.5
33	O=C(Oc1c(Cl)cc(Cl)c2ccccc12)N1CCCC1	i	1.5
34	C[C@@H]1CC[C@]2(O[C@H](CCO)C[C@@H](O)[C@@H]2O)O1	i	-0.3
35	Nc1sc2c(c1C(=O)c1ccccc1)CCCC2	i	0.24
36	CCOC(=O)CSc1nc(C)c2cc(C)c(C)cc2n1	i	1.1
37	CCn1c(C)nc2cc(C(=O)NNS(=O)(=O)c3c(C)c(C)cc(C)c3C)ccc21	i	0.49
38	O=C(c1cc2ccccc2oc1=O)N(Cc1ccc2c(c1)OCO2)Cc1ccco1	i	0.71
39	COc1ccc(N(CC(=O)NC2CCCCC2)C(=O)c2ccc(C)s2)c(OC)c1	i	0.47
40	NC(=O)C1CCN(C(=O)CSc2nc(O)cc(=O)[nH]2)CC1	i	1.3
41	Cc1ccccc1OCC(=O)OCC(=O)c1ccc(OCc2ccccc2)cc1	i	1.8
42	COc1ccc(C(=O)N[C@H](C(=O)Nc2nc3c(s2)CCCC3)C(C)C)cc1	i	0.57
43	O=C(Nc1nc2ccccc2[nH]1)C1CC1	i	-1.9
44	COCCCNC(=O)C1=CCN(S(=O)(=O)c2ccc(OC)cc2)CC1	i	1.5
45	Cc1cc(C)nc(NC(=O)c2cc(-c3ccc(C)s3)nc3ccccc23)c1	i	-0.1
46	CC(=O)Nc1ccc2nc(NC(=O)CN3CCOCC3)sc2c1	i	-0.61
47	Cc1cc(C)cc(NC(=O)NCc2nnc(SCc3ccccc3)n2C)c1	i	-1.1
48	N#CC1=C(N)SC(N)=C(C#N)C1c1ccc([N+](=O)[O-])cc1	i	0.01
49	CC(=O)Nc1ccc(S(=O)(=O)NCc2ccc(C(=O)NCCCN3CCC(C)CC3)cc2)cc1	i	1.7
50	COc1cc(NC(=O)CSc2nncn2C)cc(OC)c1OC	i	1.2
51	COc1ccc(COc2cc(-c3cccc(OC)c3)nc3ccc(NC(=O)c4ccc(OC)cc4)cc23)cc1	i	-2.5
52	CCCNS(=O)(=O)c1cccc(C(=O)OCc2cc(=O)oc3cc(OC)ccc23)c1	i	-0.96
53	CNC(=S)Nc1ccc(C)c(NC(=S)NC)c1	i	0.27
54	COc1ccccc1CCNC(=O)c1c(C)nn(CC(C)C)c1Cl	i	0.74
55	O=C(NC1CCC(CC2CCC(NC(=O)C(Cl)Cl)CC2)CC1)C(Cl)Cl (configuration not stated)	i	-1.3
56	CCN1CCC(n2nccc2NC(=O)c2ccccc2Cl)CC1	i	3.1
57	CC(=O)Nc1cccc(C(=O)Nc2nc(C)cs2)c1	i	-1.2
58	CCC(C)N1CCCCC1C(=O)Nc1c(C)cc(C)cc1C (configuration not stated)	i	0.46
59	C/C(=N\Nc1ccc([N+](=O)[O-])cc1)c1ccc(-n2nncc2C)cc1	i	2.9
60	CCC(C)(C)NC(=O)CN(CCc1cccc(C)c1)C(=O)c1csnn1	i	-0.36

Further records follow:
#	canonical_smiles	KCNQ2 block	KCNQ2 block baseline
61	COc1ccc(Cl)cc1C(=O)O/N=C(\N)c1ccccn1	i	-0.01
62	c1ccc(-c2noc(CSc3nnc(Cc4cccs4)n3-c3ccccc3)n2)cc1	i	0.02
63	Cc1ccc(C2=NN(S(=O)(=O)c3ccccc3)C(c3ccccc3O)C2)cc1 (configuration not stated)	i	0.4
64	COC(=O)[C@H](Cc1ccccc1)NC(=O)O[C@@H]1C(=O)c2cc(OC)ccc2O[C@H]1c1ccc(OC)c(Br)c1	i	0.49
65	COc1ccc(-c2nnc(Nc3ccc(S(=O)(=O)Nc4nccs4)cc3)c3ccccc23)cc1	i	-1.7
66	CCN(CC)CCN(C(=O)c1ccc(S(=O)(=O)N(CC)c2ccccc2)cc1)c1nc2c(OC)ccc(OC)c2s1	i	-1.4
67	COc1ccc(N2CCN(C3CCN(S(=O)(=O)c4ccc(F)cc4)CC3)CC2)cc1	i	0.22
68	COc1ccc(OCc2cc(C(=O)NCCCc3ccccc3)no2)c(Cl)c1	i	-1.1
69	COc1ccc(CN(C(=O)c2ccc(-c3ccccc3)[nH]2)C(C(=O)NCC2CCCO2)c2ccc(C)o2)cc1 (configuration not stated)	i	0.17
70	C#CC[N+](C)(C)CC#Cc1ccc(Cl)cc1	i	-0.98
71	O=C(CCc1ccccc1)Nc1ccccc1[N+](=O)[O-]	i	0.27
72	CCOc1ccccc1NC(=O)C1CCCN(S(=O)(=O)c2ccc3c(c2)C(C)(C)C(=O)N3C)C1 (configuration not stated)	i	-1.1
73	O=C(C1CCCO1)N1CCN(C(=S)Nc2ccc(Cl)cc2)CC1 (configuration not stated)	i	-0.02
74	Cc1ccc(-n2c(C)cc(/C([O-])=C(/C(=S)Nc3ccc(F)c(Cl)c3)[n+]3ccccc3)c2C)cc1	i	-0.93
75	CCOc1ccc(CC(=O)Nc2ccc(S(=O)(=O)Nc3cc(C)on3)cc2)cc1OCC	i	1.1
76	O=C1C2ON(c3ccc(Cl)cc3)C(c3ccco3)C2C(=O)N1c1ccccc1 (configuration not stated)	i	-0.49
77	Cc1nn2c(-c3ccc(S(=O)(=O)N4CCN(C)CC4)o3)nnc2c2ccccc12	i	-0.4
78	COC(=O)c1ccc(N2CCN(C(C)=O)CC2)c(NC(=O)COc2ccccc2C)c1	i	-1.1
79	O=C(Nc1cc(S(=O)(=O)N2CCOCC2)ccc1N1CCOCC1)c1cn2ccccc2n1	i	1.5
80	COc1ccc(NC(=O)c2ccccc2Oc2ccccc2)cc1	i	0.03
81	CCOc1ccc(-n2cnc3scc(-c4ccc(OC)c(OC)c4)c3c2=O)cc1	i	8.3
82	Cc1ccc(S(=O)(=O)N2CCC(C(=O)OCC(=O)N3CCCC(C)C3)CC2)cc1C (configuration not stated)	i	0.9
83	CCN(CC)S(=O)(=O)c1ccc(-c2nnco2)cc1	i	1.5
84	Cc1cc2oc(=O)sc2cc1NS(=O)(=O)c1ccccc1	i	0.92
85	N#CC1(c2ccccc2)CCCN1C(=O)c1ccc(Br)o1 (configuration not stated)	i	0.19
86	CC(=O)c1cccc(N(CC(=O)NC2CCCCC2)C(=O)CNC(=O)c2cccs2)c1	i	0.85
87	Cc1cc(=O)c2cc(Br)ccc2n1CC(=O)NCc1ccccc1	-8.3*	-0.21*
88	COCCNc1nc(CSc2ccccc2)nc2sc(C)c(C)c12	i	1.5
89	O=C(Nc1nc2ccc(F)cc2s1)c1ccc(N2CCCC2=O)cc1	i	-0.46
90	O=C(CN(Cc1ccco1)C(=O)c1ccc(Cl)cc1)Nc1c(Cl)cc(Cl)cc1Cl	i	2.6

Reprinted: nos. 61 to 62
#	canonical_smiles	KCNQ2 block	KCNQ2 block baseline
61	COc1ccc(Cl)cc1C(=O)O/N=C(\N)c1ccccn1	i	-0.01
62	c1ccc(-c2noc(CSc3nnc(Cc4cccs4)n3-c3ccccc3)n2)cc1	i	0.02

Next section.
#	canonical_smiles	KCNQ2 block	KCNQ2 block baseline
91	Cc1cc(Cl)ccc1OCc1nc(-c2ccncc2)no1	i	0.8
92	Cc1cccc(-c2nnc(N)s2)c1	i	-0.41
93	O=S(=O)(NCCSc1ccccc1)c1ccc2c(c1)OCCO2	i	-0.21
94	O=S(=O)(c1ccc(Cl)c(NC(=S)Nc2cccc(O)c2)c1)N1CCOCC1	i	0.79
95	CC(C)CCNC(=O)CN(Cc1ccccc1Cl)C(=O)CCC(=O)Nc1ccccn1	i	-0.15
96	CCN(CC)CCNC(=O)c1cc(-c2ccc(Br)s2)nc2ccccc12	i	-0.18
97	CC(CNC(=O)c1ccc(C(C)(C)C)cc1)CN(C)C (configuration not stated)	i	1.6
98	Cc1ccccc1N1CCN(C2CCCN(C(=O)c3cc(CC(C)C)nn3C)C2)CC1 (configuration not stated)	i	0.63
99	O=Cc1ccc(OC(=O)C2CC(=O)N(c3ccc(F)cc3)C2)cc1 (configuration not stated)	i	0.63
100	O=C1c2ccccc2C(=O)N1CC(O)COc1ccccc1Cl (configuration not stated)	i	-1.1
101	CCN1CCCc2cc(CN(CCN3CCOCC3)C(=S)Nc3ccc(OC)cc3)ccc21	i	-0.3
102	CN(C)CCN(C(=O)c1ccc(Br)s1)c1nc2cc3c(cc2s1)OCCO3	i	0.73
103	C/C(=C/c1ccccc1)C(=O)N1CCN(c2ccc(F)cc2)CC1	i	1.6
104	Cc1ccccc1-c1nnc(-c2cccs2)o1	i	0.25
105	Clc1cccc(Cl)c1COn1nnc2ccccc21	i	-2.6
106	CCOC(=O)c1cnc2nc(Cc3ccccc3)[nH]n2c1=O	i	3
107	Cc1cc(NCCO)nc(-n2nc(C)cc2C)n1	i	0.78
108	CC(NC(=O)c1cc(S(=O)(=O)N2CCOCC2)cn1C)c1ccccc1 (configuration not stated)	i	3.2
109	Cc1cc(C)n(S(=O)(=O)c2ccc3ccccc3c2)n1	i	1.7
110	Cc1[nH][nH]c(=O)c1C(c1ccc(-c2cccc(C(=O)O)c2)o1)c1c(C)[nH][nH]c1=O	i	1.4
111	CCOc1ccc(N(CC(=O)Nc2cccc(C)c2)S(C)(=O)=O)cc1	i	0.49
112	[O-]c1n[n+](-c2ccc(Cl)cc2)cc2ccccc12	i	0.02
113	O=C(Cc1nc2ccccc2[nH]1)c1ccc([N+](=O)[O-])cc1	i	1.9
114	O=C(C[n+]1cccc(CNC(=O)c2ccc(OC(F)F)cc2)c1)c1ccccc1	i	0.39
115	CCOc1ccc(NC(=O)COc2coc(CN3CCc4ccccc4C3)cc2=O)cc1	i	4.2
116	COc1ccccc1NS(=O)(=O)c1cc(C(=O)NCC2CCCO2)ccc1C (configuration not stated)	i	-2.2

Full records as entered above. Values in the order: KCNQ2 block, KCNQ2 block baseline
O=C1C2ON(c3ccc(Cl)cc3)C(c3ccco3)C2C(=O)N1c1ccccc1 (configuration not stated) across the screens: i, -0.49
CN(C)CCN(C(=O)c1ccc(Br)s1)c1nc2cc3c(cc2s1)OCCO3 across the screens: i, 0.73
O=C(CCc1ccccc1)Nc1ccccc1[N+](=O)[O-] across the screens: i, 0.27
NC(=O)C1CCN(C(=O)CSc2nc(O)cc(=O)[nH]2)CC1 across the screens: i, 1.3
CC(C)NC(=O)NC(=O)COC(=O)c1ccc([N+](=O)[O-])cc1Cl across the screens: i, 2.5

Two of these compounds, reformatted:
item | KCNQ2 block | KCNQ2 block baseline | Compound
92 | i | -0.41 | Cc1cccc(-c2nnc(N)s2)c1
93 | i | -0.21 | O=S(=O)(NCCSc1ccccc1)c1ccc2c(c1)OCCO2
